# Screening results: PubChem BioAssay, Broad Institute
# AF4-AF9 inh: blocks AF4 peptide binding to human AF9; inhibition, % at 10 µM; P42568; 350,000 compounds, 0.47% hits; AlphaScreen, biotin-AF4 peptide binding to FLAG-AF9;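 active means every replicate reaching a set inhibition limit, whatever the replicate mean, cut at about 25% in these data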;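 further: 0% = plate neutral control median and 100% = total signal loss; the record names both 10 and 1 µM as test concentration; the first replicate is given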
# Target sequence (P42568 whole entry, looked up): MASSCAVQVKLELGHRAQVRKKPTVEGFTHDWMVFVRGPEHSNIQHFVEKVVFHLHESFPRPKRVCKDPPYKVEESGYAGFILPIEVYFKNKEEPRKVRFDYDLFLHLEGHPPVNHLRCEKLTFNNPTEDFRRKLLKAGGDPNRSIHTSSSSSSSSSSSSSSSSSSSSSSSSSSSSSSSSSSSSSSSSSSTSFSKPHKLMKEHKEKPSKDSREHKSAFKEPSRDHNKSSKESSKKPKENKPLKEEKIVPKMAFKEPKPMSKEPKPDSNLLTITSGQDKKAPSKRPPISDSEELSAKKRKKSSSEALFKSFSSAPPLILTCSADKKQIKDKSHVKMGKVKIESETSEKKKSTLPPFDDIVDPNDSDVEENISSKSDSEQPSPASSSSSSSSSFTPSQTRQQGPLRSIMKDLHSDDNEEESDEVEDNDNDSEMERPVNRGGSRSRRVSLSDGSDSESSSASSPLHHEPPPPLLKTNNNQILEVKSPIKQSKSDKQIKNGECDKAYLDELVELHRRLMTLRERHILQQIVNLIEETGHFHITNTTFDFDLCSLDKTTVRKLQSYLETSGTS
# The depositor's hits bear a star. Not all compounds are listed, so the mix of outcomes need not match the whole.
Molecule,AF4-AF9 inh
O=C(NC1CCCC1)N1CCCCN2[C@H](CO)[C@@H](c3ccc(/C=C/c4ccccc4)cc3)[C@@H]2C1,5.8
COc1cccc(-c2ccc([C@H]3[C@H](CO)N4C(=O)CN(C(=O)C5CC5)C[C@@H]34)cc2)c1,-0.5
C[C@@H]1CCCCO[C@@H](CN(C)C(=O)C2CCCCC2)[C@@H](C)CN([C@@H](C)CO)C(=O)c2cc(NC(=O)Nc3cccc4ccccc34)ccc2O1,-1.2
CO[C@H](CN(C)C(=O)c1ccc2c(c1)OCO2)[C@@H](C)CN([C@@H](C)CO)S(=O)(=O)c1ccccc1,-1.0
CC(C)(C)NC(=S)N1CCC2CC1c1cc(-c3ccc4c(c3)OCO4)ccc12 (centres undefined),-8.4
CC(CCl)n1c(=O)c2ccccc2n1C(=O)c1ccccc1 (centres undefined),-0.1
O=C(NCc1nc2ccccc2[nH]1)C1=C[C@@H](c2ccc3c(c2)OCO3)C[C@@H](OCCCCO)O1,-1.6
C[C@@H]1CN([C@H](C)CO)C(=O)c2cc(C#Cc3cccnc3)cnc2O[C@H]1CN(C)S(=O)(=O)c1ccccc1F,-3.2
Cc1noc(C)c1S(=O)(=O)N(C)C[C@@H]1Oc2c(NS(C)(=O)=O)cccc2C(=O)N([C@@H](C)CO)C[C@H]1C,-0.9
COc1ccc(S(=O)(=O)N(C)C[C@H]2OCCCC[C@H](C)Oc3ccc(NC(=O)C4CCCCC4)cc3C(=O)N([C@H](C)CO)C[C@H]2C)cc1,-3.1
CC(C)(C)n1nc(C2CC2)c(Br)c1NC(=O)c1ccc(Cl)cc1,13.3
O=C(C[C@@H]1CC[C@@H]2[C@H](COC[C@@H](O)CN2C(=O)Nc2cc(Cl)cc(Cl)c2)O1)N1CCOCC1,-1.7

Molecule,AF4-AF9 inh
OC[C@@H]1CN(Cc2ccc(F)cc2)C[C@H](n2cnc3c(N4CCN(c5ccccc5)CC4)ncnc32)O1,8.0
Cc1noc(C)c1NC(=O)N(C)C[C@H]1OCCCC[C@H](C)Oc2ccc(NS(=O)(=O)c3ccc(Cl)cc3)cc2C(=O)N([C@@H](C)CO)C[C@H]1C,-10.0
C[C@@H]1CN([C@@H](C)CO)C(=O)c2cc(NC(=O)Cc3ccccc3)ccc2O[C@@H](C)CCCCO[C@H]1CN(C)C(=O)c1ccncc1,0.9
C[C@H](CO)N1C[C@H](C)[C@H](CN(C)C(=O)c2cccc(F)c2)Oc2ncc(-c3ccncc3)cc2C1=O,-2.4
CCCNC(=O)N(C)C[C@@H]1Oc2ncc(/C=C/c3ccccc3)cc2C(=O)N([C@H](C)CO)C[C@H]1C,-11.6
CNC[C@H]1Oc2cc(C#CC(C)(C)O)ccc2S(=O)(=O)N([C@@H](C)CO)C[C@@H]1C,-1.3
O=C([C@@H]1N[C@@H]2c3ccc(-c4ccccc4F)c(=O)n3C[C@@H]2[C@H]1CO)N1CCc2ccccc2C1,-0.5
N#Cc1cccc(-c2ccc3c(c2)[C@@H]2[C@@H](CCN2C(=O)c2ccc4c(c2)OCO4)[C@H](CO)N3)c1,-2.8
CCCC(=O)N1CCC2(CC1)CN(Cc1cccnc1)[C@@H](CO)c1[nH]c3cc(OC)ccc3c12,2.2
CO[C@H]1CN(C)C(=O)c2cc(NC(=O)C3CC3)ccc2OC[C@@H](C)N(CC2CCOCC2)C[C@H]1C,-6.6
COCC(=O)NC[C@H]1[C@H](c2ccccc2)[C@H](CO)N1C(=O)c1ccccc1,-0.1
CC(C)C#Cc1ccc([C@@H]2[C@@H](CO)N3CCCCN(CC4CC4)C[C@@H]23)cc1,6.6

Molecule,AF4-AF9 inh
CCNC(=O)[C@H]1[C@H](CO)[C@H]2Cn3c(ccc(-c4ccccc4)c3=O)[C@H]2N1C(=O)C1CCCC1,0.0
C[C@H]1CN([C@@H](C)CO)C(=O)c2cc(NC(=O)CCC(F)(F)F)ccc2O[C@@H]1CN(C)S(C)(=O)=O,1.2
Cc1cc(C(F)(F)F)c2c(N)c(C(=O)NCc3ccc(Cl)cc3)sc2n1,-1.1
Clc1ccc(-c2csc(NCC3CCCO3)n2)cc1 (centres undefined),7.6
CN(C)C(=O)C[C@@H]1CC[C@@H]2[C@@H](COc3ccc(NC(=O)c4ccc(F)c(F)c4)cc3C(=O)N2C)O1,0.4
C[C@@H]1CN([C@H](C)CO)C(=O)c2cc(NS(C)(=O)=O)ccc2O[C@@H](C)CCCCO[C@@H]1CN(C)S(=O)(=O)c1ccc(Cl)cc1,0.8
C[C@@H]1CN([C@@H](C)CO)C(=O)c2cc(-c3cncnc3)cnc2O[C@H]1CN(C)Cc1cncnc1,-4.4
COc1ccc(CCNC(=O)Nc2nc(C(N)Cc3ccccc3)cs2)cc1OC (centres undefined),11.3
COc1ccc(-c2nc3c(C)cc(Br)cn3c2Cc2cccc(F)c2)cc1OC,0.8
C[C@H](CO)N1C[C@H](C)[C@@H](CN(C)C(=O)c2cnccn2)Oc2ncc(C#Cc3ccccn3)cc2C1=O,-2.8
O=S(=O)(Cc1ccccc1)N1CCCCN2[C@@H](CO)[C@H](c3ccc(C#Cc4ccccc4)cc3)[C@@H]2C1,4.4
CCS(=O)(=O)N1Cc2cc(C(=O)O)nc(-c3cccc(-c4ccc(C#N)cc4)c3)c2[C@@H]1CCO,-4.5

Molecule,AF4-AF9 inh
C[C@@H]1CN([C@@H](C)CO)C(=O)c2cc(NC(=O)Nc3ccc(F)cc3)ccc2O[C@@H](C)CCCCO[C@@H]1CN(C)CC1CCCCC1,-4.0
CSCCC(C(=O)NCc1ccccc1)n1c(C2CCN(C(C)=O)CC2)nc2ccccc21 (centres undefined),1.8
CC(C)CC#Cc1cnc2c(c1)C(=O)N([C@H](C)CO)C[C@H](C)[C@@H](CN(C)Cc1ccccc1F)O2,8.1
C[C@H](CO)N1C[C@H](C)[C@@H](CN(C)C(=O)Nc2ccc(C(F)(F)F)cc2)OCCCC[C@H](C)Oc2ccc(NC(=O)Nc3ccc4c(c3)OCO4)cc2C1=O,1.9
COc1ccc(S(=O)(=O)Nc2ccc3c(c2)C(=O)N([C@H](C)CO)C[C@H](C)[C@@H](CN(C)C(=O)Cc2ccccc2)OCCCC[C@H](C)O3)cc1,-1.9
C[C@@H]1CN([C@H](C)CO)S(=O)(=O)c2ccc(-c3ccncc3)cc2O[C@@H]1CN(C)Cc1ccc(Oc2ccccc2)cc1,3.4
CC(=O)NC[C@H]1[C@@H](c2ccc(-c3ccccc3F)cc2)[C@@H](CO)N1C(C)=O,0.5
COc1ccc2c3c([nH]c2c1)[C@H](CO)N(Cc1cccc(Cl)c1)CC31CCN(C)CC1,-1.2
CN1C(=O)C2CC(O)C(SC3CC4C(=O)N(C)C(=O)C4CC3O)CC2C1=O (centres undefined),-4.2
C[C@H](CO)N1C[C@H](C)[C@@H](CN(C)Cc2ccc(C(F)(F)F)cc2)Oc2ccc(NC(=O)CCCN(C)C)cc2CC1=O,11.0
C[C@@H]1CN([C@@H](C)CO)C(=O)c2ccccc2-c2ccccc2CO[C@H]1CN(C)C(=O)Cc1ccccc1,-1.3
Cc1ccc(S(=O)(=O)Nc2ccc3c(c2)C(=O)N([C@@H](C)CO)C[C@@H](C)[C@H](CN(C)S(=O)(=O)c2ccc(F)cc2)O3)cc1,4.0

# Fetched one by one from the list above, five records:
Molecule,AF4-AF9 inh
Clc1ccc(-c2csc(NCC3CCCO3)n2)cc1 (centres undefined),7.6
COc1ccc(S(=O)(=O)N(C)C[C@H]2OCCCC[C@H](C)Oc3ccc(NC(=O)C4CCCCC4)cc3C(=O)N([C@H](C)CO)C[C@H]2C)cc1,-3.1
COc1ccc(-c2nc3c(C)cc(Br)cn3c2Cc2cccc(F)c2)cc1OC,0.8
O=C(NCc1nc2ccccc2[nH]1)C1=C[C@@H](c2ccc3c(c2)OCO3)C[C@@H](OCCCCO)O1,-1.6
CC(C)(C)NC(=S)N1CCC2CC1c1cc(-c3ccc4c(c3)OCO4)ccc12 (centres undefined),-8.4

# The list continues:
Molecule,AF4-AF9 inh
O=C(NCCCCC(NC(=O)c1ccccc1)C(=O)O)OCc1ccccc1 (centres undefined),-0.7
COc1ccc(Cl)cc1-c1cc(C(=O)NCC2CCCCC2)[nH]n1,-1.2
CCc1csc(N2[C@H](CO)[C@H](c3ccccc3)[C@@H]2CN(C)C(=O)C2CCC2)n1,-1.2
COc1ccccc1S(=O)(=O)N[C@H]1C=C[C@H](CC(=O)N2CCCCC2)O[C@H]1CO,-10.9
Cc1noc(C)c1S(=O)(=O)Nc1ccc2c(c1)CC(=O)N([C@H](C)CO)C[C@H](C)[C@@H](CN(C)C(=O)Nc1ccc(F)cc1)O2,7.1
O=C(c1ccc2c(c1)OCO2)N1C[C@@H]2[C@H](c3ccccc31)[C@@H](CO)N2CC1CCCC1,1.4
Cc1cc(C(=O)Nc2cccc3c2O[C@@H](CN(C)Cc2ccccc2)[C@@H](C)CN([C@@H](C)CO)C3=O)n(C)n1,-1.5
C[C@H](CO)N1C[C@H](C)[C@@H](CN(C)Cc2ccc(Oc3ccccc3)cc2)Oc2cc(-c3ccncc3)ccc2S1(=O)=O,-11.7
C[C@H]1CN([C@@H](C)CO)C(=O)Cc2cc(NC(=O)C3CCCCC3)ccc2O[C@@H]1CN(C)S(=O)(=O)c1ccc(Cl)cc1,-3.7
Cc1ccc(S(=O)(=O)N(C)C[C@@H]2OCCCC[C@H](C)Oc3ccc(NC(=O)Cc4ccccc4)cc3C(=O)N([C@H](C)CO)C[C@@H]2C)cc1,-1.1
COc1ccc(S(=O)(=O)N[C@@H]2C=C[C@H](CC(=O)N3CCC(Cc4ccccc4)CC3)O[C@@H]2CO)cc1,-0.2
CC1(c2nnnn2-c2ccc3c(c2)OCCO3)CCC(=O)N1C1CCN(Cc2ccccc2)CC1 (centres undefined),10.8

Molecule,AF4-AF9 inh
C[C@@H]1CN([C@@H](C)CO)C(=O)Cc2cc(NC(=O)Cc3ccccc3)ccc2O[C@H]1CN(C)S(=O)(=O)c1ccccc1,-3.7
C[C@H]1CN([C@@H](C)CO)C(=O)c2cccc(NC(=O)Nc3cccc4ccccc34)c2O[C@@H]1CN(C)C(=O)Nc1ccc2c(c1)OCO2,10.1
CCCNC(=O)N1CC2(CCN(Cc3ccncc3)CC2)c2c(n(C)c3cc(OC)ccc23)[C@H]1CO,5.4
C[C@@H]1CN([C@@H](C)CO)C(=O)c2cc(N(C)C)ccc2O[C@@H](C)CCCCO[C@H]1CN(C)Cc1ccncc1,-1.2
C[C@H]1CN([C@@H](C)CO)C(=O)Cc2cc(NC(=O)Cc3cn(C)c4ccccc34)ccc2O[C@H]1CN(C)Cc1ccc(-c2ccccc2)cc1,0.2
O=C(CN1CCOCC1)N[C@@H]1CC[C@H](CCn2cc(C3CCCC3)nn2)O[C@H]1CO,-0.1
COc1ccc(NC(=O)Nc2ccc3c(c2)C(=O)N([C@@H](C)CO)C[C@@H](C)[C@@H](CN(C)C(=O)Nc2ccccc2)OCCCC[C@H](C)O3)cc1,-9.9
CN1C(=O)c2cc(NC(=O)c3cccc(F)c3)ccc2OC[C@H]2O[C@H](CC(=O)N3CCc4ccccc4C3)CC[C@H]21,-0.3
CCCNC(=O)C[C@H]1CC[C@@H]2[C@@H](COc3ccc(NC(=O)c4cccc(F)c4)cc3C(=O)N2C)O1,1.0
CC1(C(=O)NS(=O)(=O)c2cccc(F)c2)CCN1C(=O)CC1CCCCC1 (centres undefined),-4.4
O=C(OCc1ccccc1C(F)(F)F)c1ccc(Br)c(S(=O)(=O)N2CCOCC2)c1,-1.0
Cc1ccc(S(=O)(=O)Nc2ccc3c(c2)C(=O)N([C@@H](C)CO)C[C@@H](C)[C@H](CN(C)C(=O)Nc2ccc(C(F)(F)F)cc2)O3)cc1,-0.7

# In the list so far, these have a COOH group.
Molecule,AF4-AF9 inh
CCS(=O)(=O)N1Cc2cc(C(=O)O)nc(-c3cccc(-c4ccc(C#N)cc4)c3)c2[C@@H]1CCO,-4.5
O=C(NCCCCC(NC(=O)c1ccccc1)C(=O)O)OCc1ccccc1 (centres undefined),-0.7

# Additional compounds follow:
Molecule,AF4-AF9 inh
NC(Cc1ccc(C(F)(F)F)cc1)c1csc(Nc2ccc(C(=O)NCCCO)cn2)n1 (centres undefined),6.9
COc1cc(OC)c2c(-c3cccc(-c4ccc(C(F)(F)F)cc4)c3)cc(=O)oc2c1,-4.0
O=C(C[C@@H]1C[C@@H]2c3cc(NC(=O)Nc4ccccc4)ccc3O[C@@H]2[C@@H](CO)O1)NC1CCCC1,0.3
C#CCNC(=O)C[C@H]1C[C@@]2(C(=O)OC)C(=C[C@H](C(C)(C)C)O[C@@H]2C)N(CCC2=CCCCC2)C1=O,4.3
O=C(C[C@@H]1CC[C@H]2NC[C@@H](O)COC[C@@H]2O1)NC1Cc2ccccc2C1,-2.5
C[C@@H](NC(=O)[C@@H]1[C@@H](CO)[C@@H]2Cn3c(ccc(C4=CCCC4)c3=O)[C@H]1N2C(=O)C1CC1)c1ccccc1,-2.6
O=C(C[C@@H]1CC[C@H](NC(=O)C2CCOCC2)[C@@H](CO)O1)NCC1CCCCC1,0.0
Nc1ncnc2c1ncn2[C@@H]1O[C@H](C(=O)NCCCN2CCCC2=O)[C@@H](O)[C@H]1O,-2.7
C[C@@H]1CN([C@@H](C)CO)C(=O)c2cc(-c3ccncc3)cnc2O[C@H]1CN(C)S(=O)(=O)c1ccc(F)cc1,-1.4
C[C@@H]1CCCCO[C@@H](CN(C)C(=O)NC2CCCCC2)[C@@H](C)CN([C@@H](C)CO)C(=O)c2cc(NC(=O)CCC(F)(F)F)ccc2O1,-1.8
Cc1noc(C)c1NC(=O)N(C)C[C@@H]1Oc2c(NC(=O)c3ccncc3)cccc2C(=O)N([C@H](C)CO)C[C@H]1C,-2.1
CCCN1C[C@H](C)[C@H](OC)CN(C)C(=O)c2cc(NC(=O)Nc3c(C)noc3C)ccc2OC[C@H]1C,-0.4
